Screening results (PubChem)
ClpP mod = qHTS Assay for Activators of ClpP; 340,000 tested, 1.9% active; AID 651965, 2013; ATP-dependent Clp protease proteolytic subunit (Bacillus subtilis (strain 168)), P80244; Potency, µM (series often up to 57.5 µM), inactives show at the highest dose activity change, negative = active; purified B. subtilis ClpP, FRET peptide cleavage, 20 min; active = well fitted falling curve with a large enough effect; inconclusive = small, poorly fitted or top-dose-only effect; inactive = no such curve, though single readings can be large or run the other way; also: potency is read from the fitted curve at half-maximal effect; the source files actives as falling curves though it sought activators and does not explain the sign; nearly all actives have a fitted effect of over 65% in size; many hits overshoot -100%
Target sequence (P80244 whole entry, looked up): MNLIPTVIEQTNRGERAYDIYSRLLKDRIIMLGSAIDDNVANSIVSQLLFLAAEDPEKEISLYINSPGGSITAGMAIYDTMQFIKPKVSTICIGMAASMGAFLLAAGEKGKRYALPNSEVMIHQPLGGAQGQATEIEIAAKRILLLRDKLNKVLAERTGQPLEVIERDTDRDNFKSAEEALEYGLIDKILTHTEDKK
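ClpP 10 microg/mL final, pH 8 Tris/KCl buffer with BSA, glycerol, Tween-20; compound pinned in; FRET-FV substrate; RT 20 min; Ex320/Em430; ΔFRET vs ADEP 5.8 microM, DMSO, no enzyme.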
TRPV1 potentiator = human TRPV1 potentiation. 320,000 tested, 0.02% active. TRPV1-expressing cells, Fluo-8 calcium influx, capsaicin EC20 potentiation; host cell line not named in the record; control for the full effect not named in the record. potentiation, % at 8.33 µM. Q8NER1; active means potentiation above 80%; inconclusive means 30% to 80%; inactive means below 30%; also: 0% is about no effect
Target sequence (Q8NER1 whole entry, looked up): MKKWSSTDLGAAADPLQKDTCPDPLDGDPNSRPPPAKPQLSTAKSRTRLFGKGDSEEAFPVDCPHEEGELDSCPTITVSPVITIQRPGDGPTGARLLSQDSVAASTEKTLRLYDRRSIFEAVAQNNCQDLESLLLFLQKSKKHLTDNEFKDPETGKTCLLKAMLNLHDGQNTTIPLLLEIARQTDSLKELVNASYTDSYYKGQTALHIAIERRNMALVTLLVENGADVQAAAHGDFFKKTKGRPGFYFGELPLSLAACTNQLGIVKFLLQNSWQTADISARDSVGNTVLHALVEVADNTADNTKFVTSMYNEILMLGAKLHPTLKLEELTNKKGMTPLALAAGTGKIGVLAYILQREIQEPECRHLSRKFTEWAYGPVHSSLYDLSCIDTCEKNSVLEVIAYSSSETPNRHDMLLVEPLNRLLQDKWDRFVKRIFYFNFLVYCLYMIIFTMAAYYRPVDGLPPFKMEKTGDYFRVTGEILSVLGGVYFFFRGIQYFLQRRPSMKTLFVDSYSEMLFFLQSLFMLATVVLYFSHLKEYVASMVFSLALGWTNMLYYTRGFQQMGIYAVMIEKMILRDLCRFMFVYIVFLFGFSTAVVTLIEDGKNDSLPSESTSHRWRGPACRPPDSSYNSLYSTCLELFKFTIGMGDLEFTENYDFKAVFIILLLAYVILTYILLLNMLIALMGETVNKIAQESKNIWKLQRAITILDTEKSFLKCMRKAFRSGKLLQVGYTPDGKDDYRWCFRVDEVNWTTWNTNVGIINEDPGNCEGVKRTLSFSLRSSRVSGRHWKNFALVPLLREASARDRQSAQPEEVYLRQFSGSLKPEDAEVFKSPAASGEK
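Cells expressing TRPV1 were dye-loaded with Fluo-8 and read kinetically: 10 s baseline, 3 min after compound (agonist portion), then 2 min after EC20 capsaicin (allosteric enhancer portion). Calcium-bound dye fluorescence at 480/520 nm.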
TRPML1 blocker = human mucolipin-1 channel inhibition; Q9GZU1; TRPML1-inducible cells, Ca2+ dye fluorescence, FDSS; stronger effect = lower value; inhibition of EC80 agonist-evoked calcium signal; activity change, negative = inhibition, % (test concentration not listed); 390,000 tested, 0.02% active; AID 624415; in the data active means activity change below about -50%; inconclusive means about -30% to -50%; inactive means above about -30%;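 also: stimulus is agonist 54-4 at its EC80 concentration; % is scaled to controls: 0 for no effect and ±100 for the full control effect; compound concentration not given in the record; the text of the record puts the active cut at -80%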
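TRPML1-DL cells, Tet-induced overnight (~16 h, 37 °C) at 1,500 cells/well, were loaded with Ca8 no-wash dye plus quencher for 45-90 min at room temperature. Compounds were pinned during FDSS kinetic reading; agonist 54-4 at EC80 (4 uM final) then added.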
gsp antagonist = gsp mutant antagonism; gsp-mutant cells, cAMP HTRF, 30 min; control for the full effect not named in the record; AID 624288; Potency, µM (top dose mostly 76.9 µM), for inactives: at the top dose activity change, negative = inhibition, hits mostly inhibitors; 340,000 tested, 0.4% active; active = falling curve of any shape with a large fitted effect; inconclusive = falling curve, mostly with a smaller effect; inactive = flat or rising curve; cell line not stated here;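 also: intracellular cAMP measured with PDE inhibitor Ro 20-1724 present during compound exposure; potency is read from the fitted curve at half-maximal effect; % is scaled to controls: 0 for no effect and ±100 for the full control effect; nearly all actives have a fitted effect of over 65% in size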
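HTRF cAMP read-out (cAMP-d2 plus anti-cAMP antibody-K in lysis buffer, 30 min RT). Before lysis, cells are exposed to compounds with […] for 30 min at 37C in DPBS containing Ca/Mg, BSA and Tween 20.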
Menin MLL FP FL = displaces fluorescein MLL peptide from human menin. Fluorescence polarization, fluorescein-MLL peptide displacement from menin. FP activity change, % at 61.4 µM. 290,000 tested, under 10 active; inconclusive = falling polarisation curve, or a change in total fluorescence; inactive = total fluorescence flat and polarisation flat or rising; no compound was filed as active; the % refers to the polarisation; negative = inhibition;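 also: % of control where 0% means no effect; inhibitors lower the polarisation; unlabelled MLL peptide was the positive control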
gsp ag = gsp mutant agonism; gsp mutant cells, cAMP HTRF, 30 min; control for the full effect not named in the record; Potency, µM (titrated, usually from 76.9 µM), without a hit: at the top dose activation (cAMP increase), hits mostly activators; 340,000 tested, 0.13% active; active = well fitted activation curve with a large enough effect; inconclusive = small, poorly fitted or top-dose-only effect, or another doubt; inactive = no such curve, though single readings can be large or run the other way; cell line not stated here;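 also: phosphodiesterase inhibitor Ro 20-1724 added with compounds to block cAMP breakdown; potency is read from the fitted curve at half-maximal effect; nearly all actives have a fitted effect of over 60% in size; about a fifth of the inactives were tested at one dose only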
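Cells stably selected in G418 were plated at 2000/well, grown 16-24 hr, then given compounds in DMSO with the PDE inhibitor […] (300 uM solution added) for 30 min at 37C; cAMP was read by HTRF.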
Sfp PPTase inh = blocks B. subtilis Sfp PPTase activity. 310,000 tested, 3.5% active. Potency, µM, for inactives: max response, negative = inhibition, hits mostly inhibitors. Biochemical Sfp PPTase activity, qHTS; active = well fitted inhibition curve with a large enough effect; inconclusive = small, poorly fitted or top-dose-only effect, or another doubt; inactive = no such curve, though single readings can be large or run the other way;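 also: the enzyme is Sfp with the accession as filed and its product quenches rhodamine fluorescence; potency is read from the fitted curve at half-maximal effect; 0% = enzyme reaction without inhibitor and -100% = no enzyme wells; top concentration of the series not given in the record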
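After 15 min at room temperature with compound, 15 nM Sfp received 5 uM rhodamine-CoA plus 12.5 uM BHQ-2-ybbR (50 mM Hepes pH 7.6, 10 mM MgCl2). Rate came from the fluorescence difference over 30 min, ex 525/em 598 nm.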
Starred values were filed as active, the others as inactive; ? = inconclusive; . = not tested or not shown; & = joins results of further samples; [ ] = remark or other dose. Rows are unselected; 4.9% or so of the library scored in one or more.

SMILES	ClpP mod	TRPV1 potentiator	TRPML1 blocker	gsp antagonist	Menin MLL FP FL	gsp ag	Sfp PPTase inh
COc1cc(/C=N/NC(=O)c2ccc3c(c2)OCCO3)c(Br)c(Br)c1O	-5.9%	-3	1	?	.	24%	-19%
CC(=O)Oc1ccc(N(C(C)=O)S(=O)(=O)c2ccc(C)cc2C)c2ccccc12	0.6%	17	-5	6%	3.7	-10%	7%
COCCNC(=O)c1onc(CSc2cc(C)cc(C)c2)c1C(=O)O	2.5%	4	-8	4%	-1.7	-31%[inhibitor]	9%
CCN1CCN(Cc2ccc(NC(=O)c3ccc(C)c(NC(=O)N4CCNC4=O)c3)cc2C(F)(F)F)CC1	0.3%&0.0%&0.2%	-11&-21	-2&-3&-2	5%&11%	5.0&1.8	11%&-24%	28%&8%
CCOCC(=O)NC1CCc2cc(OC)c(OC)c(OC)c2-c2ccc(SC)c(=O)cc21 (configuration not stated)	-4.0%	.	0	-2%	.	-4%	.
O=C(c1ccc(CSc2nc3ccncc3[nH]2)cc1)N1CCN(c2cccc(Cl)c2)CC1	-0.1%	-44	2	35µM*	-1.9	?	-4%
COc1ccc(CC(=O)N2CCC(c3ccccc3)C2)cc1 (configuration not stated)	.	-8	9	-1%	-1.4	2%	10%
Cc1ccc(CN(CC(=O)NC2CCCC2)C(=O)c2csnn2)cc1	-1.5%	-7	11	5%	.	-5%[15.4 µM]	11%
CC(=O)c1ccc(N2CCN(C(=O)c3ccco3)C(C)C2)c(F)c1 (configuration not stated)	-5.5%	-5	-1	-15%	5.4	-11%	8%
CC(C)C[C@H](NC(=O)N1CC(=O)Nc2ccccc21)C(=O)N[C@@H](C(=O)O)c1ccccc1	-3.9%	-11	-19	7%	-0.6	?	23%
CCN(Cc1ccncc1)C(=S)Nc1ccccc1C	-1.5%	.	-5	.	.	4%	.
CC(C)(C)c1nc(CN2CCOCC2)ccc1O	-1.5%	7	9	-17%	3.4	-31%[inhibitor]	4%
N#CCCn1cc(C(=O)Nc2ccc([N+](=O)[O-])cc2)c(-c2cc3ccccc3o2)n1	-9.0%	?	22	7%	-0.7	1%	0%
Cc1ccccc1N(CC(=O)N/N=C/c1ccc(N(C)C)cc1)C(=O)c1ccccc1	35µM*	5	-8	-22%	16	-21%	-13%
CCOCCOc1nc(C)cc(C)c1S(=O)(=O)c1ccccc1C	.	22	8	-6%	0.2	3%	19%
COC(=O)Cc1nnc(NC(=O)c2ccccc2)s1	-1.5%	-3	16	6%	7.1	-20%	8%
C=CCOc1ccc(CNCCc2ccc(S(N)(=O)=O)cc2)cc1	.	2	28	13%	-3.9	-6%	-7%
Cc1cccc(C)c1NC(=O)c1cc(S(=O)(=O)N2CCOCC2)cn1C	-0.2%	14	3	11%	0.6	21%	6%
C[C@H](CO)N1C[C@H](C)[C@@H](CN(C)S(=O)(=O)c2ccc(F)cc2)Oc2c(NC(=O)Cc3ccccc3)cccc2C1=O	0.4%	.	18	-20%	.	.	.
CCOC(=O)N1CCN(C(=O)c2cnn3ccccc23)CC1	-23%	.	-4	3%	2.3	?	8%
O=C(Nc1ccc(F)cc1)/C(Cl)=C/c1ccccc1	.	-1	27	.	-2.4	-13%[15.4 µM]	3%
CCN(CC)CCn1c(=S)[nH]c2cc(C(=O)NCc3ccccc3Cl)ccc2c1=O	-7.8%	2	7	-4%	-5.2	32%	-3%
C[C@H](NC(=O)Cc1cccc2ccccc12)C(=O)NCc1ccccc1	.	-1	8	-16%	-0.4	5%[15.4 µM]	16%
COC(=O)Cn1c(=NC(=O)C(C)(C)C)sc2c(C)cc(C)cc21	-4.5%	19	21	-1%	5.3	13%	17%
CCc1ccc2oc(=O)cc(CN3CCC(C)CC3)c2c1	-6.5%	-8	3	?	-2.8	9%	10%
CN(C)/C=N/c1nc2nccc(-c3ccccc3)n2n1	.	-22	-8	5%	1.3	6%[15.4 µM]	-5%
CCOC(=O)c1ccc(N=Cc2nc(-c3ccccc3)oc2OC(C)=O)cc1	1.0%	-3	-16	-5%	6.4	13%	-8%
COc1ccc(OC)c(N(CC(=O)Nc2ccc3c(c2)OCO3)S(=O)(=O)c2ccccc2)c1	-0.3%	2	16	-39%	4.0	22%	7%
CCOC(=O)c1c(C2COc3ccccc3O2)csc1N (configuration not stated)	-1.1%	3	-7	-20%	3.9	-18%	4%
O=C(Nc1ccccc1)Nc1ccncc1	.	-25	14	5%	-1.3	-9%[15.4 µM]	9%
Cc1ccc(NC(=O)C(=O)NCc2ccncc2)cc1	1.4%	-36	0	-19%	4.4	-6%	17%
COc1ccccc1N1CCN(S(=O)(=O)c2ccc3c4c(cccc24)C(=O)N3C)CC1	.	1	.	.	4.0	.	1%
CCC(C)(C)n1nnnc1C(c1cccnc1)N1CCCC(C)C1 (configuration not stated)	0.6%	0	2	6%	1.2	-1%	19%
O=C(C1CCC(Cn2c(=S)[nH]c3ccccc3c2=O)CC1)N1CCN(c2ccccc2)CC1 (configuration not stated)	-3.1%	.	38	-2%	.	-6%	.
Cn1c(=O)c(C=Nc2ccccc2)c(O)c2ccccc21	.	2	.	.	9.6	.	12%
C=CCOc1c(CNn2nnnc2N)cccc1OC	-1.4%	-4	-6	5%	-0.4	5%	-1%
CCNC(=S)N1CCC(n2cnc3ccccc32)CC1	-1.2%	0	-10	4%	2.1	-54%[inhibitor]	7%
CCCN(CC(=O)Nc1ccc(F)c(F)c1F)C(=O)CCc1nc2ccccc2c(=O)[nH]1	2.1%	-4	-18	6%	.	-29%	.
CN(C)c1ccc(/C=C/C#N)cc1	-17%	-20	12	7%	8.4	-4%	-8%
CCn1cc(CN2CCN(Cc3ccc(OC)c(C)c3C)C(CCO)C2)c(C)n1 (configuration not stated)	.	2	-2	3%	2.9	-59%[inhibitor]	15%
COc1cc2c(cc1OC)C(C(=O)N1CCCC1)C(c1ccccc1F)N(C)C2=O (configuration not stated)	-11%	-4	-7	7%	17	-2%	-5%
CCCc1[nH]nc2c1C(c1ccc(OC(=O)c3ccco3)cc1)C(C#N)=C(N)O2 (configuration not stated)	-4.6%	7	-9	-28%	1.8	-4%	13%
Cc1cccc(C(=O)Nc2sc(-c3ccccc3)cc2C(=O)O)c1	-11%	2	-5	-32%	4.2	1%	-19%
NC(=O)c1ccsc1NC(=O)c1cc(=O)c2ccccc2o1	2.3%	2	12	-13%	-1.2	-24%	-5%
COc1cccc(-c2noc(CCCC(=O)N3CCOCC3)n2)c1	-1.6%	-2	-1	9%	-1.9	-10%	17%
Cc1ccc(-n2cnnn2)cc1Cl	.	13	16	.	-2.0	15%[15.4 µM]	1%
CC(C)C[C@H]1CN=C(N(C)C)N1CC1CCCC1	-1.1%	-21	-14	9%	.	.	.
CCN1CCSc2ccc(C(=O)NCc3cc(Br)ccc3OC)cc21	3.6%	?	2	-21%	-3.4	?	10%
COc1ccc(-n2nnc3c(=O)n(Cc4ccccc4C)cnc32)cc1	-0.8%	-16	-7	2%	-4.0	-4%	6%
CCOc1ccc(OCC(=O)Nc2ccc(OC)cc2)cc1	-1.9%	2	7	-3%	-3.5	4%	2%
O=C(c1ccccc1Cl)c1c(O)c2ccccc2oc1=O	0.9%	.	25	-12%	.	17%	.
N/C(Cc1ccc([N+](=O)[O-])cc1)=N\OC(=O)COc1ccccc1Cl	-0.6%	-7	25	4%	3.8	20%	17%
COc1ccc(OC)c(NC(=O)COC(=O)Cc2ccc(-c3ccccc3)cc2)c1	-2.4%	-2	-6	-14%	1.8	-13%	3%
Cc1ccc(C)c(S(=O)(=O)Nc2ccc(O)c(C(=O)O)c2)c1	.	7	-10	.	-1.7	4%[15.4 µM]	13%
C=CCN(CC=C)C(=O)COC(=O)c1ccc(Sc2ncn[nH]2)c([N+](=O)[O-])c1	.	0	-25	-16%	-4.7	19%[15.4 µM]	6%
COc1ccc(C2C(C(=O)NCc3ccccc3)=C(C)Nc3ncnn32)cc1OC (configuration not stated)	-4.0%	-7	-3	-13%	-0.3	2%	6%
Cc1cccc(N2CCN(S(=O)(=O)c3cccc4nonc34)CC2C)c1 (configuration not stated)	1.7%	15	28	1%	-0.1	-6%	13%
CCN(CC)C(=O)c1[nH]cnc1C(=O)N[C@@H](CCCCNC(=O)OC(C)(C)C)C(=O)OC(C)(C)C	-1.0%	0	31	11%	0.7	-6%	10%
CCOc1ccc(C(=O)Nc2cc(=O)n(C)c(=O)n2C)cc1	-3.4%	.	3	3%	.	11%	.
Cc1ccccc1-n1c(=O)c2ccccc2n2cnnc12	-3.6%	-4	8	7%	4.1	1%	25%
Remaining list, next part
SMILES	ClpP mod	TRPV1 potentiator	TRPML1 blocker	gsp antagonist	Menin MLL FP FL	gsp ag	Sfp PPTase inh
CC(=O)N1CCC2(CC1)CC(=O)c1cc(OCC(=O)N3CCOCC3)ccc1O2	3.7%	25	3	10%	0.6	3%	19%
CCCCn1c(N)c(N(CC(C)C)C(=O)CSc2ccc3c(c2)OCCO3)c(=O)[nH]c1=O	-1.0%	3	-12	-26%	.	-53%[inhibitor]	.
COc1cccc2cc(C(=O)Oc3ccccc3)c(=O)oc12	1.7%	14	40	2%	14	3%	-7%
CCn1ncc([N+](=O)[O-])c1C(=O)Nc1ccc(C)c(C)c1	0.1%	19	1	-1%	-5.7	-12%	-8%
COc1ccc(NC(=O)CN(C)C(=O)c2ccc(=O)[nH]c2)cc1	.	11	37	10%	?	-2%[15.4 µM]	3%
CCN(CC)CCNC(=O)c1cc2c(=O)n(C)c3ccccc3c2n1C	3.9%	0	-10	7%	3.3	-14%	8%
O=c1c(-c2ccco2)[n+]([O-])c2ccccc2n1OCc1ccccc1[N+](=O)[O-]	.	4	-21	0%	0.9	16%	50µM*
COC(=O)c1ccc(-n2nnnc2SCC(=O)Nc2ccccc2F)cc1	-1.7%	?	14	-8%	-1.8	12%	5%
COC(=O)c1ccc(=O)n(-c2ccc(OC)cc2)c1	-1.9%	-6	-6	6%	3.3	-7%	17%
